liver stage: Plasmodium liver-stage growth inhibition, dose response, imaging, Malaria Box, P. yoelii, HepG2-A16-CD81EGFP (AID 602156); calls after a first round at 10 µM; hits with a dose series show IC50 in µM; P. yoelii liver stage in HepG2-A16-CD81EGFP, imaging; first-round cut-off not given here; hit rate 4.8% among 5,700; in the data active = a potency from the dose series;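 note: infected cells exposed to compound for 48 hours before fixation; stained parasite area by imaging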
Numbers without * were called inactive; i = inactive. The list is partial; the hit share may differ from the screen's.

1	CCCCCc1cc(O)c2c3c(c(=O)oc2c1)CN(C)CC3
  liver stage: i
2	OC1(c2ccc(Cl)c(C(F)(F)F)c2)CCN(CCOC2c3ccccc3CSc3ccc(Cl)cc32)CC1 (centres undefined)
  liver stage: i
3	CCN1CCN(c2c(Cl)cccc2NC(=O)C(Cl)(Cl)Cl)CC1
  liver stage: i
4	COc1cc(CN2CC3CC(C2)c2cccc(=O)n2C3)ccc1O (centres undefined)
  liver stage: i
5	Cc1o[nH]c(=O)c1CC(N)C(=O)O (centres undefined)
  liver stage: i
6	C=C[C@H]1CN2CC[C@H]1C[C@@H]2[C@@H](OC(=O)CC)c1ccnc2ccccc12
  liver stage: i
7	CCCCCCc1cc(O)c2c(c1)OC(C)(C)C1=C2CCN(C)C1
  liver stage: i
8	CC1=C[C@H]2O[C@@H]3C[C@H]4OC(=O)C=CC=C[C@H]([C@@H](C)O)OCC[C@@H](C)[C@H](O)C(=O)OC[C@@]2(CC1)[C@]4(C)[C@@]31CO1
  liver stage: i
9	C/C=C/[C@H]1O[C@@](O)([C@@H](C)C(O)C(C)[C@H]2OC(=O)C(OC)=CC(C)=C[C@@H](C)[C@H](O)C(CC)[C@@H](O)[C@H](C)CC(C)=CC=C[C@@H]2OC)C[C@@H](O[C@H]2C[C@@H](O)[C@H](OC(N)=O)[C@@H](C)O2)[C@@H]1C (some centres undefined)
  liver stage: i
10	CN1CCN(c2ccc(NC(=O)Oc3ccccc3)cc2)CC1
  liver stage: i
11	C=C[C@H]1CN2CC[C@H]1C[C@@H]2[C@@H](OC(=O)c1ccco1)c1ccnc2ccccc12
  liver stage: i
12	C=CC1CN2CCC1CC2[C@@H](OC(=O)c1ccc(C(C)(C)C)cc1)c1ccnc2ccc(OC)cc12 (some centres undefined)
  liver stage: i
13	CCN1CC=C(c2c[nH]c3ccccc23)CC1
  liver stage: i
14	CO[C@H]1[C@H](C)[C@@H]([C@H]2CC[C@H]([C@@H]3CC[C@H]([C@@]4(C)O[C@]5(O[C@H](C[C@@H]6O[C@](O)([C@@H](C)C(=O)O)[C@@H](C)[C@H](O[C@H]7CC[C@H](OC)[C@@H](C)O7)[C@@]6(C)OC)C[C@@H](OC)[C@H]5C)[C@H](C)[C@H]4OC)O3)O2)O[C@](C)(O)[C@@H]1C
  liver stage: i
15	O=C1CN=C(c2ccccc2Cl)c2cc(Cl)ccc2N1Cc1cccc([N+](=O)[O-])c1
  liver stage: i

16	COc1ccc(C(Cc2ccccc2)NC2CN3CCC2CC3)cc1 (centres undefined)
  liver stage: i
17	C=C[C@H]1CN2CC[C@H]1C[C@H]2[C@H](OC(=O)CCCC)c1ccnc2ccccc12
  liver stage: i
18	C=CC1CN2CCC1CC2[C@H](c1ccnc2ccccc12)S(=O)(=O)O (some centres undefined)
  liver stage: i
19	C=CC12CCN(CC1)C(C(O)c1ccnc3ccc(OC)cc13)C2 (centres undefined)
  liver stage: i
20	CCn1c(C)cc(/C=C2\C(=O)NC(=O)N(c3cccc(Cl)c3)C2=O)c1C
  liver stage: i
21	C[C@@H]1CC[C@H]2[C@@H](C)C(=O)O[C@@H]3O[C@]4(C)CC[C@@H]1[C@]32OO4
  liver stage: i
22	COc1ccc(-c2nc3ccccc3n2C2CCN(Cc3ccc(C)o3)CC2)cc1OC
  liver stage: i
23	CCc1cc2c(cc1-c1csc(N=C(N)N)n1)C(C)(C)CCC2(C)C
  liver stage: 2.9µM*
24	C/C(=C\c1csc(C)n1)[C@@H]1C[C@@H]2O[C@]2(C)CCC[C@H](C)[C@H](O)[C@@H](C)C(=O)C(C)(C)[C@@H](O)CC(=O)O1
  liver stage: i
25	CC(Cc1ccccc1Sc1ccccc1O)N(C)C (centres undefined)
  liver stage: i
26	C=CC1CN2CCC1CC2C(O)c1ccnc2ccccc12 (centres undefined)
  liver stage: i
27	CN(C)c1ccc(/C=C2\C(=O)NC(=O)N(Cc3ccccc3Cl)C2=O)cc1
  liver stage: i
28	Cc1cc(N(C)C)cc(C)[n+]1OC(=O)N(c1ccccc1)c1ccccc1
  liver stage: i
29	COc1cc(OC)c(OC)cc1CN1CCN(C(C)C)CC1
  liver stage: i
30	COc1ccc(-c2ccc(C=C3C(=O)NC(=S)NC3=O)o2)cc1Cl
  liver stage: i
31	CCCCCCc1cc(O)c2c3c(c(=O)oc2c1)CCC(C)C3 (centres undefined)
  liver stage: i

Given as tab-separated lines: part of the list above
No.	structure	liver stage
19	C=CC12CCN(CC1)C(C(O)c1ccnc3ccc(OC)cc13)C2 (centres undefined)	i
28	Cc1cc(N(C)C)cc(C)[n+]1OC(=O)N(c1ccccc1)c1ccccc1	i
26	C=CC1CN2CCC1CC2C(O)c1ccnc2ccccc12 (centres undefined)	i
25	CC(Cc1ccccc1Sc1ccccc1O)N(C)C (centres undefined)	i
16	COc1ccc(C(Cc2ccccc2)NC2CN3CCC2CC3)cc1 (centres undefined)	i
20	CCn1c(C)cc(/C=C2\C(=O)NC(=O)N(c3cccc(Cl)c3)C2=O)c1C	i
22	COc1ccc(-c2nc3ccccc3n2C2CCN(Cc3ccc(C)o3)CC2)cc1OC	i

Part of the list above in order of heavy-atom count, falling.
14	CO[C@H]1[C@H](C)[C@@H]([C@H]2CC[C@H]([C@@H]3CC[C@H]([C@@]4(C)O[C@]5(O[C@H](C[C@@H]6O[C@](O)([C@@H](C)C(=O)O)[C@@H](C)[C@H](O[C@H]7CC[C@H](OC)[C@@H](C)O7)[C@@]6(C)OC)C[C@@H](OC)[C@H]5C)[C@H](C)[C@H]4OC)O3)O2)O[C@](C)(O)[C@@H]1C
  liver stage: i
9	C/C=C/[C@H]1O[C@@](O)([C@@H](C)C(O)C(C)[C@H]2OC(=O)C(OC)=CC(C)=C[C@@H](C)[C@H](O)C(CC)[C@@H](O)[C@H](C)CC(C)=CC=C[C@@H]2OC)C[C@@H](O[C@H]2C[C@@H](O)[C@H](OC(N)=O)[C@@H](C)O2)[C@@H]1C (some centres undefined)
  liver stage: i
11	C=C[C@H]1CN2CC[C@H]1C[C@@H]2[C@@H](OC(=O)c1ccco1)c1ccnc2ccccc12
  liver stage: i
